Screening results (PubChem BioAssay)
StopGo FLuc – FMDV 2A StopGo reporter, firefly signal | HEK cells with a luciferase reporter of 2A StopGo recoding | Potency, µM (titrated, usually from 57.5 µM), without a hit: at the top dose signal change, negative = less light | hit rate 0.23% among 120,000 | AID 1745856; active = well fitted falling curve with a large enough effect; inconclusive = small, poorly fitted or top-dose-only effect; inactive = no such curve, though single readings can be large or run the other way; also: nearly all actives have a fitted effect of over 60% in size; overnight with compound
StopGo RLuc – lowers the Renilla signal of an FMDV 2A StopGo reporter; HEK cells with a luciferase reporter of 2A StopGo recoding; hit rate 0.32% among 120,000; AID 1745857; Potency, µM (highest dose often 57.5 µM), for the others: top-dose signal change, negative = less light; active means well fitted falling curve with a large enough effect; inconclusive means small, poorly fitted or top-dose-only effect; inactive means no such curve, though single readings can be large or run the other way; also: nearly all actives have a fitted effect of over 55% in size; overnight with compound
The depositor's hits bear a star; ? = inconclusive; & = joins results of further samples; [ ] = dose if it differs, or a comment. % is scaled to controls: 0 for no effect and ±100 for the full control effect; potency is read from the fitted curve at half-maximal effect. This is a subset; rates above refer to the full screens.

Under each structure – StopGo FLuc, StopGo RLuc
Cn1cc(C(C(=O)O)N2CCN(Cc3ccncc3)CC2)c2ccc(C(=O)O)cc21 (stereo not given)
→ 15%, 6%
Cc1ccc(C)c(N2CCN(C(=O)c3cc(S(=O)(=O)N4CCCC4)c[nH]3)CC2)c1
→ 8%, 2%
CCOc1cccc(CNC(=O)c2ccc(N3CCCC3)c(NC(=O)Nc3ccccc3CC)c2)c1
→ -10%, -4%
CNC(=O)COc1ncnc2c(Cl)cc(Cl)cc12
→ -1%, -12%
Cc1ccc(Cl)cc1N1CCN(C(=O)c2ccc(CS(=O)c3ccccc3)o2)CC1 (stereo not given)
→ -18%, ?
CCn1cc(C(=O)NCCc2ccc(C)cc2)c(=O)c2cc(S(=O)(=O)N3CCCCC3)ccc21
→ -6%, 8%
O=C(c1cc2c(s1)CCC2)N1CCN(c2ncccn2)CC1
→ 0%, -4%
CCc1ccc(-n2c(=O)c3c(C)c(C(=O)N(C)C)sc3n(CC(=O)Nc3cc(Cl)ccc3C)c2=O)cc1
→ -26%, -2%
O=C(NCCc1cccnc1)C1CC2CCC1C2 (stereo not given)
→ 21%, 7%
CC1(C)C(c2ccc(Cl)cc2)=[N+]([O-])C(C)(C)N1O
→ 12%, 13%[1.06 µM]
Nc1nc(N)c(S(=O)(=O)c2ccccc2)c(Nc2ccc(Br)cc2)n1
→ 24%, 26%
O=C(O)c1csc(Br)c1
→ 18%, 13%
Cc1ccc(-c2cc(C(=O)Nc3nn[nH]n3)c3ccccc3n2)cc1
→ 10%, -2%
Cc1ccccc1NC(=O)c1cc(=O)c2ccc(C)c(C)c2o1
→ -1%, 3%
COc1ccc(-n2nc(C(=O)NCCc3ccc(OC)c(OC)c3)c3c4ccccc4n(C)c3c2=O)cc1Cl
→ -5%, 0%
O=C(COc1ccc2c(=O)c(Oc3ccc(F)cc3)coc2c1)Nc1ccc(N2CCOCC2)cc1
→ -2%, -8%
CC(=O)N1CCC2(CC1)OC(=O)C(C)=C2C(=O)NCCN1CCCCCC1
→ -16%, -16%
CCCc1cc(=O)oc2c(C)c(OCC(=O)NCc3ccccn3)ccc12
→ -15%, -13%
CCc1cc(=O)oc2cc(OCC(=O)N3CCCc4ccccc43)ccc12
→ 2%, 4%
C/C(=C/C(=O)NCC1CN(C)CCO1)C12CC3CC(CC(C3)C1)C2 (stereo not given)
→ 0%, -12%
COC(=O)c1cc(-c2ccc(Cl)cc2)c2c(=O)[nH]c(=O)n(C)c2n1
→ -9%, -7%
CCN(CC)c1ccc(-n2nc3cc(C)c(NC(=O)c4ccccc4C)cc3n2)c(C)c1
→ ?, ?
Cc1cc(C)cc(C(=O)C(C#N)C(=O)c2cccs2)c1 (stereo not given)
→ 9%, 13%
CC1(C)Cc2ccccc2-c2nnc(-c3ccc(Br)o3)n21
→ -20%, -27%
CCCn1c2ccccc2c2cnn(CC(=O)Nc3cccc(C(=O)OCC)c3)c(=O)c21
→ -14%, -9%
Cc1cccc(-n2c(/C=C/c3ccco3)nc3ccccc3c2=O)c1
→ 25%, 4%
NC(N)=Nc1ccc(F)cc1
→ -5%, -8%
CN=C(NC)NCc1cccc(Br)c1
→ -10%, -5%
COc1cccc(C(=O)Oc2ccc(-c3ccc(C)cc3)cc2)c1
→ 30%[activator], -3%
CCc1nc2ccccc2c(NC(=O)CNC(C)(C)C)c1C
→ -8%, -6%
O=C(/C=C/c1ccco1)OC(C(=O)c1ccccc1)c1ccccc1 (stereo not given)
→ 19%, 10%
Cc1oc(-c2nc(C#N)c(NCc3ccccc3)o2)cc1S(=O)(=O)N1CCCC1
→ 0%, 31%[activator]
CCOC(=O)Oc1ccc2c(=O)c(Oc3ccccc3Cl)c(C(F)(F)F)oc2c1
→ 4%, -21%
c1ccc(CNCCCn2ccnc2)cc1
→ 1%, 6%
Cc1ccc(C(C)C)c(OCc2n[nH]c(=S)n2Cc2ccc(Cl)cc2)c1
→ -2%, 0%
CC(C(=O)Nc1cccc(C#N)c1)n1nnc(-c2cccc(C(F)(F)F)c2)n1 (stereo not given)
→ -11%, -5%
COc1ccc(NC(=O)c2cc3c(s2)-c2c(C)cccc2OC3)c(OC)c1
→ -1%, -10%
O=C(OCc1cccc(F)c1)c1ccc(Cl)c(S(=O)(=O)N2CCCC2)c1
→ -5%, -3%
COc1ccc(Br)cc1CNC(=O)CCC(=O)N1CCSc2ccccc21
→ -13%, -3%
Fc1ccccc1NC(=S)N(Cc1ccccc1)Cc1ccccc1
→ 3%, 101%[activator]

One compound at a time, from the list above. Values in the order: StopGo FLuc | StopGo RLuc
CCN(CC)c1ccc(-n2nc3cc(C)c(NC(=O)c4ccccc4C)cc3n2)c(C)c1 in the list: ? | ?
CN=C(NC)NCc1cccc(Br)c1 in the list: -10% | -5%
COc1cccc(C(=O)Oc2ccc(-c3ccc(C)cc3)cc2)c1 in the list: 30%[activator] | -3%
CCOC(=O)Oc1ccc2c(=O)c(Oc3ccccc3Cl)c(C(F)(F)F)oc2c1 in the list: 4% | -21%

Other entries:
Under each structure – StopGo FLuc, StopGo RLuc
COc1cccc(N2CCN(S(=O)(=O)c3ccc(-c4ccno4)cc3OC)CC2)c1
→ 4%&-5%, 45%&41%[activator]
CCOC(=O)c1c(S(=O)(=O)N2CCCC(C(=O)Nc3ccc(OCC)cc3)C2)c(C)n(C)c1C (stereo not given)
→ -2%, -8%
CCCC(CCC)C(=O)NCc1nnnn1-c1ccc(OCC)cc1
→ 41%[activator], 20%
Cc1c(NS(=O)(=O)c2ccc(C(C)(C)C)cc2)c(=O)n(-c2ccccc2)n1C
→ -8%, -2%
CCN(Cc1ccccc1)S(=O)(=O)c1ccc2[nH]c3c(c2c1)CCCCC3
→ 2%, 169%[activator]
COc1ccc(C(=O)NCc2nnc(SCC(=O)Nc3ccc(C)cc3)n2-c2ccccc2)cc1
→ -17%, -9%
COC(=O)CSc1ccc2nnc(CCNS(=O)(=O)c3ccccc3)n2n1
→ -15%, -18%
Cn1c(C(=O)NCc2ccccc2F)cc2cc(S(=O)(=O)N3CCCCC3)ccc21
→ -16%, 17%
CC(C)(C)c1ccc(-c2nc(C#N)c(NCC3CCCO3)o2)cc1 (stereo not given)
→ 49%[activator], 24%
CCc1nc2cc(NC(=O)Cn3c(C)nc4ccccc4c3=O)ccc2o1
→ -4%, -6%
CCc1c(C)c2ccc(O)c(CN3CCN(c4ccc(OC)cc4)CC3)c2oc1=O
→ -20%, -12%
Cn1ccc2c(C(=O)N3CCC(C(N)=O)CC3)cccc21
→ 8%, 9%
CCOc1ccc(CNC(=O)c2cnc3sc(N4CCCCCC4)nn3c2=O)cc1OC
→ -9%, -17%
COc1ccc(Br)cc1CNC(=O)CN1C(=O)c2cccnc2Oc2ccc(C)cc21
→ -1%, -4%
CCOCCCNC(=O)C(c1ccc(C)cc1)N(Cc1ccc2c(c1)OCO2)C(=O)c1ccccc1O (stereo not given)
→ -8%, 278%[activator]
N#CC(Cc1ccccc1)Sc1ccccc1 (stereo not given)
→ 0%, 0%
COc1cc(NS(=O)(=O)c2cc(-c3n[nH]c(=O)c4c3CCCC4)ccc2C)cc(OC)c1
→ ?, -2%
FC(F)(F)c1cccc(NC(=S)NCCC(c2ccccc2)c2ccccc2)c1
→ 0%, 117%[activator]
O=C(Cc1cccc(F)c1)Nc1c(NC2CCCCC2)c2ccccc2oc1=O
→ -11%, 31%[activator]
NCCc1cccc(N)n1
→ 146%[activator], 3%
CCC(C)NC(=O)c1ccc2c(c1)N(Cc1cccc(Cl)c1)C(=O)c1ccccc1S2=O (stereo not given)
→ -22%, -6%
O=C(NCc1ccc(Cl)cc1)c1cnc(N2CCCCC2)c2ccccc12
→ -1%, -11%
O=C(Cc1ccccc1)NCCNC(=O)c1cc(=O)[nH]c2ccccc12
→ -11%, -9%
N#C/C(=C/c1cccc(C#N)c1)C(=O)c1c[nH]c2cc(F)ccc12
→ 158%[activator], 0%
O=C(O)C/C(=C/c1ccc(Br)s1)c1nc2ccccc2o1
→ -3%, -2%
CCNC(=O)C(C)Sc1nc(NCC)c2ccccc2n1 (stereo not given)
→ 33%[activator], 25%
O=C(c1cc(-c2ccccc2)nc2ccccc12)N1CCCC(C(F)(F)F)C1 (stereo not given)
→ 7%, 27%
CSc1cccc(Nc2nc3c(S(=O)(=O)c4ccccc4)nnn3c3ccc(Cl)cc23)c1
→ 8%, -9%
Cc1ccc(Cn2c(=O)n(-c3cc(C)cc(C)c3)c(=O)c3oc4ccccc4c32)cc1
→ -19%, -15%
Cc1ccc(CNC(=O)C(C)n2c(=O)cc(C(F)(F)F)c3c(C)nn(C)c32)cc1 (stereo not given)
→ 12%, -2%
Cc1cccc(-c2nc(C#N)c(N3CCN(C(=O)c4cccs4)CC3)o2)c1
→ 100%[activator], 0%
Cc1ccc(OCc2cc(=O)n3cc(C)sc3n2)c(NC(=O)c2ccco2)c1
→ -6%, 0%
CCc1ccc(NC(=O)CSc2nc(-c3ccc(C)cc3)nc3c2Cc2c(CO)cnc(C)c2O3)cc1
→ -1%, -7%
Cc1ccc(NC(=O)c2nc3ccccc3nc2N2CCCC2)c(C)c1
→ 27%, 38%[activator]
COc1ccc(NC(=O)c2ccc(NC(=O)CCS(=O)(=O)c3cccs3)cc2)cc1Cl
→ -63%, ?
Cc1ccc(C(=O)COc2ccc3ccc(=O)oc3c2)cc1
→ 57%[activator], 20%
COCC(=O)NCC(C)(C)c1ccccc1
→ 1%, -13%
O=C(NCC1(N2CCOCC2)CCCCC1)c1ccc(NC(=O)c2cccs2)cc1
→ -9%, -1%
O=C(NC1CCCC1)c1ccc2c(c1)N(Cc1ccccc1F)C(=O)c1ccccc1S2
→ -16%, -2%
O=C1CCc2cc(S(=O)(=O)NCc3ccco3)cc3c2N1CCC3
→ 13%, 122%[activator]
CN(Cc1ccccc1)C(=O)c1ccccc1C(=O)OCC(=O)C(C)(C)C
→ 24%, 103%[activator]
CCN(CC)C(CNC(=O)c1cn(C)c2ccccc12)c1ccccc1 (stereo not given)
→ -3%, -7%
Cc1ccc(-c2cc(C(=O)OC(C)C(=O)NC(=O)NC3CCCC3)c3ccccc3n2)o1 (stereo not given)
→ 91%[activator], 32%[activator]
CCOC(=O)c1ccc(Nc2ncnc3c2cnn3-c2cccc(Cl)c2)cc1
→ 32%[activator], -13%
COc1ccc2c(C)c(CCC(=O)NCc3ccc(Cl)cc3)c(=O)oc2c1C
→ 25%, -4%
COc1cccc(N2CCN(C(=O)c3ccc4nc(N5CCC(C)CC5)sc4c3)CC2)c1
→ ?, 5%
Cn1c(=O)c2c(ncn2CC(=O)c2ccc3c(c2)CCC3)n(C)c1=O
→ -6%, -18%
COc1ccc(C(=O)C(C)C(=O)c2ccc(OC)cc2)cc1
→ 4%, 12%
CCOc1ccc(NC(=O)Cn2cc(C(=O)c3ccc(F)cc3)c(=O)c3cc4c(cc32)OCCO4)cc1
→ -10%, -14%
COc1ccc(C)cc1-n1nnc(-c2nc(-c3ccncc3)no2)c1N
→ 1%, 0%
CCN(CC)CCNC(=O)c1ccc2c(c1)sc1nc(-c3ccc(F)cc3)cn12
→ 61%[activator], -15%
Cc1cc(C)cc(NC(=O)Cn2cc(C(=O)c3ccccc3)c(=O)c3ccc(C)nc32)c1
→ ?, 29%
CC(=O)N1CCc2c(sc3c2c(=O)n(Cc2ccccc2)c(=O)n3Cc2ccccc2F)C1
→ -18%, -11%
CCC1c2cccn2-c2ccccc2CN1C(=O)Nc1ccc(F)cc1 (stereo not given)
→ -6%, 0%
COc1ccccc1N1CCN(c2nc3ccc(C)cc3nc2-n2nc(C)cc2C)CC1
→ -12%, -5%
Cc1cccc(C(=O)N(Cc2ccc(C)o2)c2ccccn2)c1
→ 181%[activator], 60%[activator]
CC(C)(C)OC(=O)COc1ccc2cc(-c3nc4ccccc4s3)c(=O)oc2c1
→ 0%, -5%
N#C/C(=C/c1cccc(F)c1)C(=O)c1c[nH]c2cc(F)ccc12
→ 84%[activator], -5%
COc1ccc(CNC(=O)c2cn(-c3cccc(OC)c3)c(=O)c3ccccc23)cc1
→ -1%, 29%
O=C(Nc1ccccc1)c1ccc(Cl)c(S(=O)(=O)Nc2ccccc2)c1
→ 8%, 325%[activator]

Following part:
Under each structure – StopGo FLuc, StopGo RLuc
O=C(c1ccc2c(c1)N(Cc1ccccc1Cl)C(=O)c1ccccc1S2)N1CCCC1
→ -22%, 79%[activator]
Cc1cc(Nc2cccc(Cl)c2)nc2ccc(NC(=O)Cc3ccc(Cl)cc3)cc12
→ ?, -17%
CC(=O)N1c2ccc(S(=O)(=O)NCCC(=O)Nc3ccc(C)cc3Br)cc2CC1C (stereo not given)
→ -17%, 81%[activator]
C[N+](C)(C)CC(=O)c1ccc2c(c1)OCCCO2
→ 9%, 3%
CC(C)c1nnc2ccc(NCc3ccccc3Cl)nn12
→ 17%, 16%
Cc1cccc(C)c1NC(=O)c1nc(S(C)(=O)=O)ncc1N(Cc1ccc(F)cc1)Cc1ccco1
→ -22%, 0%
CN(C)C1(CNC(=S)NCc2ccc(F)cc2)CCCCC1
→ 14%, 42%[activator]
CCCCn1c(=O)n(CC(=O)Nc2c(C)cccc2C)c(=O)c2c1ncn2CCC(C)C
→ 0%, -12%
CCOC(=O)c1cc2n(n1)CC(C)(C(=O)NC1CCC(C)CC1)N(CCc1cccs1)C2=O (stereo not given)
→ 7%, 37%[activator]
COc1cc(NC(=O)c2ccc3c(c2)NC(=O)CS3)cc(OC)c1
→ ?, 5%
COc1cc2c(cc1OC)CN(C(=O)COC(=O)c1cccnc1Nc1ccccc1F)CC2
→ 14%, -14%
COc1ccc(-c2cc(C(=O)N3CCOCC3)c3ccccc3n2)cc1OC
→ 0%, 39%[activator]
COc1ccc(-c2cc(C(F)(F)F)nc(S(=O)(=O)CCCC(=O)Nc3ccccc3C(F)(F)F)n2)cc1OC
→ -15%, -9%
